Beta cell apopt = inhibitors of cytokine-induced beta cell apoptosis, primary screen, luminescence; 0.8% of 300,000 active; protection from apoptosis, % (test concentration not listed); INS-1E cytokine-induced death, ATP luminescence, 48 h; percent of positive-control rescue, neutral wells zero; AID 435005, 2010;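 active = all replicates at 75% or more, or half of them and the mean; inconclusive = half reach 75% but not the mean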;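 note: 0% = cytokine-treated negative control wells and 100% = positive control rescue; higher means more ATP so stronger rescue from cytokine killing; wells of about 40 µL received 100 nL stock; the first replicate is given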
UCH37 DUB inh = inhibitors of human UCH37 deubiquitinase, primary screen, biochemical, Ub-AMC cleavage, fluorescence; purified proteasome/UCH37; inhibition, % (test concentration not listed); 0.33% of 330,000 active;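 active = mean of two replicates above 20%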;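 note: 0% = compound-free wells with enzyme and 100% = wells lacking proteasome; stock transfer was 100 nL into about 20 µL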
Target sequence (Q9Y5K5 whole entry, looked up): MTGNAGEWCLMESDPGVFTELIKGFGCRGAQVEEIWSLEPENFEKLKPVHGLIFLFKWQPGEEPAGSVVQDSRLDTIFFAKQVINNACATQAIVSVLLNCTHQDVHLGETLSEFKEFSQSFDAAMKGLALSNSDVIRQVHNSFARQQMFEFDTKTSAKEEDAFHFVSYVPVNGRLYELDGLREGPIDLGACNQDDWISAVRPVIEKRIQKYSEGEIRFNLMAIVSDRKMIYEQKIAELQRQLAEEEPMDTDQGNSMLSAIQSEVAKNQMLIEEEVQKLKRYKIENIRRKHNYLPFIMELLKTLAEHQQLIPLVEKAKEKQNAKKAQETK
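assay system = human UCH37 enzyme supplied as purified proteasome complex | amount = proteasome at 0.15 nM in the dispensed enzyme solution | schedule = 30 min compound-proteasome preincubation then 25 min substrate reaction, room temperature | measured by = fluorescence, ex 355 nm, em 460 nm | benchmarks = no-proteasome wells (full inhibition) and compound-free wells (no inhibition)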
Bfl-1 A1 inh = caspase 3/7 activation in MEF A1-2A-BIM cells, primary screen, A1 inhibitor project, cell-based, luminescence, HTS | caspase activation, % (concentration not given with the values) | 0.066% of 330,000 active | AID 2462, 2010 | Caspase-Glo 3/7 luminescence, 3 h; percent of clofoctol response, vehicle zero;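 active = over half of replicate activation scores above 10%, or exactly half above 10 with the replicate mean above 10; inconclusive = replicate mean below 10 yet half the replicates above 10; inactive = over half of replicates below 10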;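 note: wells of about 30 µL received 50 nL stock; many hits fall short of the cut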
AF4-AF9 inh = inhibitors of AF4 peptide binding to AF9, primary screen, biochemical, AlphaScreen, biotin-AF4 peptide, FLAG-AF9, single point. 0.47% of 350,000 active. inhibition, % at 10 µM. AID 651704, 2012;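 active = every replicate reaching a set inhibition limit, whatever the replicate mean, cut at about 25% in these data; inconclusive = mean inhibition reaches that limit but some replicates miss it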;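 note: 0% = plate neutral control median and 100% = total signal loss; the record names both 10 and 1 µM as test concentration; the first replicate is given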
Target sequence (P42568 whole entry, looked up): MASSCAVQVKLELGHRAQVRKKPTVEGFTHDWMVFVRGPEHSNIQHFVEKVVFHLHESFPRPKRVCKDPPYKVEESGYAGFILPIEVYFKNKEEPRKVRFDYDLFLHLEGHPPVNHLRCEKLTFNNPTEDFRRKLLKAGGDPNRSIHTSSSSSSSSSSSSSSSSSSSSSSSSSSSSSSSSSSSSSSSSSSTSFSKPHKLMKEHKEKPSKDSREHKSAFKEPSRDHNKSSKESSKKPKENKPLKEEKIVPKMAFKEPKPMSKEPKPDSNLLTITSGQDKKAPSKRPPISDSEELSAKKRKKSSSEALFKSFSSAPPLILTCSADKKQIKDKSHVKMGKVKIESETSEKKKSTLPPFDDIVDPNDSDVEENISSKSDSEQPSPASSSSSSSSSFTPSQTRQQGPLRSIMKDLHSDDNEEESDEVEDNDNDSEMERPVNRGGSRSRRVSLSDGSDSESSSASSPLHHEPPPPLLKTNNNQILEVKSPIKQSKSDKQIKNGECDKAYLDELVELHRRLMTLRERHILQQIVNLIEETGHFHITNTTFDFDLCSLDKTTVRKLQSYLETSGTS
E coli growth = E. coli growth inhibition, primary screen, OD600; 0.21% of 330,000 active; OD600 absorbance (concentration not given with the values); Escherichia coli growth, 23 h; active compounds read low; AID 1053175, 2014;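 active = OD600 absorbance below the run mean of sample wells minus 3.6 SD, in any replicate, cut at about 0.56 in these data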;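 note: stock transfer was 300 nL into about 60 µL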
FGF22 binding = binders of human FGF22 protein, primary screen, FGF22 synaptogenesis inhibitor project, biophysical, thermal shift, single point | 1.5% of 340,000 active | Fibroblast growth factor 22 (Homo sapiens), Q9HCT0 | calls only at 9.99 µM | recombinant FGF22 thermal shift, SYPRO orange fluorescence; percent of sucrose octasulfate shift, DMSO zero | AID 651658, 2012;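 active = melting point raised past a set limit in the mean and every replicate; inconclusive = no clear call; three in four hits are not shown here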
Target sequence (Q9HCT0 whole entry, looked up): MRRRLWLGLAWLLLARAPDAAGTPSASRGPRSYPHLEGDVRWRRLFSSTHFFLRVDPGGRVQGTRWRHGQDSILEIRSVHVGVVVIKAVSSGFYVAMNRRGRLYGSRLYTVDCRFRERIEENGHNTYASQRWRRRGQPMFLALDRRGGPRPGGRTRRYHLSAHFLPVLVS
rRNA inh HTS = reduced GFP signal of wild-type E. coli, primary screen, bacterial rRNA inhibitor project, GFP/RFP fluorescence, OD600, single point. E. coli WT GFP vs humanized-ribosome RFP mutants, 24 h; active compounds read low; DMSO median 0, no signal -100. GFP signal change (wild-type ribosome), % (test concentration not listed). 1.6% of 350,000 active;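 active = significant combined selectivity score with lowered wild-type GFP, culture density cut under 30%, mutant RFP and density less affected; inactive = any of these conditions unmet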; note: one replicate is shown; some compounds called inactive have numbers as strong as hits
T cruzi inh = inhibitors of intracellular T. cruzi growth, primary screen, luminescence, NIH3T3 host cells. inhibition, % (no concentration beside the values). T. cruzi beta-gal in NIH3T3, 90 h. 1.4% of 300,000 active;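 active = mean inhibition across valid replicates above about 55%, limit read from the data; inconclusive = mean below that limit but half or more replicates reach it; inactive = mean below it, under half of replicates reach it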;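 note: signal also drops with host cell toxicity which is not excluded here; 0% = plate median of DMSO wells and 100% = zero luminescence signal; higher percent means less beta-gal luminescence so fewer parasites; stock transfer was 50 nL into about 50 µL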
rRNA inh HTS OD600 = recorded beside rRNA inh HTS, whose call it bears; OD600 change, %; measured here: OD600 growth;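 optical density of the mix in the first replicate; 0 = DMSO median and -100 = no signal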
rRNA inh HTS RFP = second read-out of rRNA inh HTS, no call of its own (marks repeat the call); RFP signal change, %; measured here: RFP humanized mutant strains;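 first replicate; 0 = DMSO median and -100 = no signal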
Active calls of the source: *; i = inactive; ? = inconclusive; · = not tested or not shown; & = joins results of further samples. The list is partial, so the mix of outcomes need not match the whole.

1) COc1cccc(C(=O)OCC(=O)N2CCC(Cc3ccccc3)CC2)c1OC
2) CCOc1ccc(/C=N/NC(=O)c2nnn(-c3nonc3N)c2-c2ccc(OCC)cc2)cc1
3) CCN1C(N(C)CCc2cccs2)=N[C@@H](c2ccccc2)C(C(=O)OC)=C1C
4) CCC(=O)N1CCc2cc(S(=O)(=O)CCC(=O)N(C)c3ccc(OC)cc3OC)ccc21
5) COc1ccc(S(=O)(=O)N(C)CC(=O)NCc2ccco2)cc1
6) CCCCN(C)C(=O)c1ccc2c(c1)N(CC)C(=O)c1ccccc1S2(=O)=O
7) C#Cc1ccc([C@H]2C=C(C(=O)N3CCOCC3)O[C@@H](OCc3ccc(CO)cc3)C2)cc1
8) COc1ccccc1CNC(=O)COC(=O)c1n[nH]c2ccccc12
Screen / compound no.	1	2	3	4	5	6	7	8
Beta cell apopt	5	-2	6	-8	-2	-4	-1	0
UCH37 DUB inh	1.2	·	1.5	7.1	0.9	3.6	0.4	2.4
Bfl-1 A1 inh	-0.7	0.1	0.9	-0.5	0.0	-0.4	-0.4	2.1
AF4-AF9 inh	-0.6	0.8	-10	-0.7	·	-1.2	4.4&-5.5	·
E coli growth	0.7	·	·	0.71	0.71	0.79	·	0.63
FGF22 binding	i	i	i	i	·	i	i	·
rRNA inh HTS	-4	9	-4	0	·	0	3	·
rRNA inh HTS OD600	-43	6	9	3	·	0	3	·
rRNA inh HTS RFP	-6.3	3.5	-1.8	-1.2	·	-1.6	0.9	·
T cruzi inh	·	3	13	11	9	-3	6	-15

Four entries picked at random from the list so far:
2) CCOc1ccc(/C=N/NC(=O)c2nnn(-c3nonc3N)c2-c2ccc(OCC)cc2)cc1
6) CCCCN(C)C(=O)c1ccc2c(c1)N(CC)C(=O)c1ccccc1S2(=O)=O
7) C#Cc1ccc([C@H]2C=C(C(=O)N3CCOCC3)O[C@@H](OCc3ccc(CO)cc3)C2)cc1
3) CCN1C(N(C)CCc2cccs2)=N[C@@H](c2ccccc2)C(C(=O)OC)=C1C
Screen / compound no.	2	6	7	3
Beta cell apopt	-2	-4	-1	6
UCH37 DUB inh	·	3.6	0.4	1.5
Bfl-1 A1 inh	0.1	-0.4	-0.4	0.9
AF4-AF9 inh	0.8	-1.2	4.4&-5.5	-10
E coli growth	·	0.79	·	·
FGF22 binding	i	i	i	i
rRNA inh HTS	9	0	3	-4
rRNA inh HTS OD600	6	0	3	9
rRNA inh HTS RFP	3.5	-1.6	0.9	-1.8
T cruzi inh	3	-3	6	13

The listing continues:
9) Cc1ccc(F)cc1NC(=O)Cc1ncc(C(F)(F)F)cc1Cl
10) O=C(C1CCC1)N1CCN(c2cccc(C(F)(F)F)c2)CC1
11) O=C(NCCN1C(=O)S/C(=C\c2cccs2)C1=O)c1ccco1
12) O=C(C1CCN(CCCc2ccccc2)CC1)N(CCc1ccccc1)Cc1ccccc1
13) O=C(CCC(=O)N1CCCCC1)Nc1ccc(Cl)c(Cl)c1
14) CCOC(=O)c1c(NC(=O)c2ccc(N3C(=O)[C@@H]4[C@H](C3=O)[C@H]3C=C[C@@H]4C3)cc2)sc2c1CC(C)CC2 (some centres undefined)
15) CCCCc1nc(N2CCOCC2)c(C#N)c2c1COC(C)(C)C2
16) CCCc1cc(N2CCN(c3ccccn3)CC2)n2nc(C)c(-c3ccccc3)c2n1
Screen / compound no.	9	10	11	12	13	14	15	16
Beta cell apopt	4	5	-10	52	-8	1	-8	0
UCH37 DUB inh	2.7	3.0	0.0	4.6	2.1	-364	-47	-170
Bfl-1 A1 inh	-0.3	0.1	-0.1	0.5	-0.1	0.2	-0.3	0.4
AF4-AF9 inh	·	6.5	0.2	·	0.9	2.1	·	·
E coli growth	0.68	0.69	0.72	0.68	0.64	0.76	0.72	0.73
FGF22 binding	·	i	i	·	i	i	·	·
rRNA inh HTS	21	-8	1	·	3	·	·	·
rRNA inh HTS OD600	18	0	-2	·	11	·	·	·
rRNA inh HTS RFP	0.7	2.1	0.5	·	0.2	·	·	·
T cruzi inh	-5	0	4	27	-1	-4	-2	2

17) Cc1sc(NC(=O)c2cccs2)c(C(=O)OC(C)C)c1C
18) CCNS(=O)(=O)c1ccc(CCC(=O)N2CCCC2)cc1
19) COc1ccc(S(=O)(=O)Nc2ccccc2OC)cc1NC(=O)CC1CC2CCC1C2 (centres undefined)
20) CCC(C)(C)N(C(=O)CCC(=O)Nc1cc(C)on1)C(C(=O)NC(C)(C)C)c1ccc(OC)cc1 (centres undefined)
21) CCN(CC(=O)Nc1ccc2c(c1)OCCO2)C(=O)c1cc(Cl)nc2ccccc12
22) CCN1CCN(c2nc(Nc3cccc(OC)c3)nc(N)c2[N+](=O)[O-])CC1
23) COc1ccc(-c2nnc(SC(C)C(=O)NNC(=O)c3ccc(C)cc3)o2)cc1 (centres undefined)
24) CC(C)(C)c1ccc(/C=N/NC(=O)C2CCCC2)cc1
Screen / compound no.	17	18	19	20	21	22	23	24
Beta cell apopt	3	·	2	-3	-6	-3	-2	5
UCH37 DUB inh	-34	1.9	3.1	3.4	2.7	12	5.2	·
Bfl-1 A1 inh	-0.6	0.2	-0.3	0.8	0.3	1.4	-0.1	-0.6
AF4-AF9 inh	·	-0.7	·	-6.4	-7.7	4.1	·	4.7
E coli growth	0.73	0.63	0.73	0.69	0.69	0.68	0.67	·
FGF22 binding	·	i	·	i	i	i	·	i
rRNA inh HTS	·	6	·	3	-3	-3	·	4
rRNA inh HTS OD600	·	10	·	6	2	5	·	3
rRNA inh HTS RFP	·	-0.3	·	-2.5	-1.6	-3.3	·	-0.9
T cruzi inh	14	-11	1	8	·	-17	-1	·

25) CCCCn1cnc2c([nH]c3cc(OC)ccc32)c1=O
26) COc1cc([N+](=O)[O-])cc(/C=N/NC(=O)C(C)Nc2cccc(C)c2)c1O (centres undefined)
27) CCCCC1(C(=O)OCC)NC(c2ccc(O)cc2)C2C(=O)N(c3ccccc3)C(=O)C21 (centres undefined)
28) COc1ccc(/C=C/C(=O)N(Cc2cccs2)C2CCS(=O)(=O)C2)cc1 (centres undefined)
29) O=C(NCc1ccco1)C(c1ccncc1)N(C(=O)Cc1cccs1)c1ccccc1 (centres undefined)
30) Cc1cc(C)nc(SCc2nnc(SCC#N)n2-c2cccc(Cl)c2)n1
31) CCOC(=O)c1cc(C(C)(C)C)nc(SC)c1C#N
32) COc1cc(CN2CCCCC2C(=O)Nc2ccc(Oc3ccccc3)nc2)ccc1O (centres undefined)
Screen / compound no.	25	26	27	28	29	30	31	32
Beta cell apopt	-1	·	-3	-5	·	4	-12	·
UCH37 DUB inh	-0.6	·	·	8.5	0.8	0.3	0.7	1.0
Bfl-1 A1 inh	-0.2	-0.5	0.2	-0.2	-0.1	0.7	-0.7	-0.8
AF4-AF9 inh	·	3.7	2.2	·	-0.3	1.8	·	-1.2
E coli growth	0.76	·	·	0.67	0.74	0.7	0.69	0.69
FGF22 binding	·	i	i	i	·	i	i	i
rRNA inh HTS	·	-4	8	-17	4	2	2	5
rRNA inh HTS OD600	·	-5	3	-6	-8	4	5	0
rRNA inh HTS RFP	·	3.5	-1.7	-1.4	7.1	3.6	0.2	2.5
T cruzi inh	7	9	7	4	2	2	-6	12

33) CCCCn1c(N)c(N(CC)C(=O)C2CCCC2)c(=O)[nH]c1=O
34) NCCSSCCN
35) Cc1cccc(NC(=O)c2nc[nH]c2C(=O)N2CCC(C)CC2)c1
36) CCOC(=O)Cn1c(CN(Cc2ccccc2)Cc2ccccc2)nc2c1c(=O)[nH]c(=O)n2C
37) Cc1cc(Cl)c2oc(C(=O)N(C)CCc3cnn(C)c3)c(C)c2c1
38) O=C(COc1ccccc1Cl)NCCNC(=O)c1cnccn1
39) CN(CCc1ccccn1)C(=O)CCC1CCCN(C(=O)NC2CCCCC2)C1 (centres undefined)
40) COc1cc(/C=N/NC(=O)C(N)=O)ccc1OC(=O)c1cccs1
Screen / compound no.	33	34	35	36	37	38	39	40
Beta cell apopt	4	0	-4	7	3	-5	-2	-1
UCH37 DUB inh	2.0	3.0	-0.3	3.3	-1.5	3.0	-0.5	·
Bfl-1 A1 inh	1.0	0.5	1.2	-0.8	-0.2	0.6	-0.7	1.0
AF4-AF9 inh	0.7	?	·	·	0.3	0.3	-0.8	-0.7
E coli growth	0.68	0.68	0.69	0.7	0.7	0.67	0.65	·
FGF22 binding	i	i	·	·	i	i	i	i
rRNA inh HTS	18	8	·	·	-19	-11	4	9
rRNA inh HTS OD600	11	12	·	·	-18	3	-1	10
rRNA inh HTS RFP	-0.7	1.6	·	·	-2.6	-4.7	0.1	1.6
T cruzi inh	·	-27	·	1	11	-15	2	14

41) CC1CCN(C(=S)Nc2ccc(F)cc2)CC1
42) COc1ccc(N2C(=O)C(Cl)=C(NCc3ccccc3)C2=O)cc1
43) CC(C)CC(NS(=O)(=O)c1cccc(C(=O)O)c1)C(=O)O (centres undefined)
44) Cc1ccc(NC(=O)CN2C(=O)NC3(CCCCC3C)C2=O)cc1S(=O)(=O)N1CCCCC1 (centres undefined)
45) CCN(C(=O)COC(=O)COc1ccc2c(C)cc(=O)oc2c1)C1CCS(=O)(=O)C1 (centres undefined)
46) C=CCN(c1ccccc1)S(=O)(=O)c1cccc(C(=O)N2CCN(c3ncccn3)CC2)c1
47) CC(Oc1ccccc1)c1ccnc(N)n1 (centres undefined)
48) CCc1ccccc1N(CC(=O)N1CCN(c2ccc(F)cc2)CC1)S(C)(=O)=O
49) O=C(Nc1ccc2nc3n(c(=O)c2c1)CCCCC3)c1cc([N+](=O)[O-])ccc1F
50) O=C(Nc1ccccc1C(=O)O)c1cccc(F)c1
Screen / compound no.	41	42	43	44	45	46	47	48	49	50
Beta cell apopt	-6	-6	-11	-4	2	2	·	0	16	0
UCH37 DUB inh	-1.5	0.4	3.7	1.9	-17	2.3	3.8	2.4	·	5.1
Bfl-1 A1 inh	-0.2	-0.4	-0.3	-0.4	0.1	0.9	-0.2	-0.5	1.2	-12
AF4-AF9 inh	·	·	-1.5	1.4	0.7	3.2	0.2	8.8	5.8	·
E coli growth	0.69	0.82	0.71	0.67	0.72	0.68	0.69	0.7	·	0.72
FGF22 binding	·	·	i	i	i	i	i	i	i	·
rRNA inh HTS	·	·	26	-15	-2	-10	9	-11	-9	·
rRNA inh HTS OD600	·	·	11	-14	-13	-29	1	-7	-11	·
rRNA inh HTS RFP	·	·	-0.1	-3.2	-2.4	-6.6	-4.3	10.0	-4.1	·
T cruzi inh	-96	-3	-9	2	-14	·	-6	3	-45	-6

Screening results: PubChem, several laboratories
